High-throughput results: PubChem BioAssay, several laboratories
UCH37 inh = human UCH37 deubiquitinating enzyme inhibition | purified proteasome/UCH37, Ub-AMC cleavage fluorescence | inhibition, % (no concentration beside the values) | 0.33% of 330,000 active;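 active means mean of two replicates above 20%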;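 further: 0% = compound-free wells with enzyme and 100% = wells lacking proteasome; stock transfer was 100 nL into about 20 µL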
Target sequence (Q9Y5K5 whole entry, looked up): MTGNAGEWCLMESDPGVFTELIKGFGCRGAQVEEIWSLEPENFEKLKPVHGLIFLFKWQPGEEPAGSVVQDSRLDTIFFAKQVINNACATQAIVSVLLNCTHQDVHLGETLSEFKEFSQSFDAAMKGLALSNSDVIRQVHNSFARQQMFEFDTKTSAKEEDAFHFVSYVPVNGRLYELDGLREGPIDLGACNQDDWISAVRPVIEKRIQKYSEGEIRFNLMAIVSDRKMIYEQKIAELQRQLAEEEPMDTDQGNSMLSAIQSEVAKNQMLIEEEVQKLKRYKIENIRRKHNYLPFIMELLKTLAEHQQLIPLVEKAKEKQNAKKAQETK
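Material: Human UCH37 enzyme supplied as purified proteasome complex | Schedule: 30 min compound-proteasome preincubation then 25 min substrate reaction, room temperature | Detection: AMC fluorescence from Ub-AMC cleavage, excitation 355 nm, emission 460 nm | Benchmarks: Wells without proteasome as full block, compound-free enzyme plus substrate as uninhibited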
RanGTP-Impb inh = disruptors of Ran-importin-beta complex formation – biochemical, FRET, CFP-Ran, YFP-importin-beta, homogeneous, primary screen | AID 2216 | 1.1% of 300,000 active | cell-free CFP-Ran/YFP-importin-beta FRET ratio | inhibition, % (test concentration not listed);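 active means most replicates above 15%; inconclusive means exactly half above 15%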;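 further: 0% = DMSO wells and 100% = Ran loaded with GDP instead of GTP; wells of about 40 µL received 100 nL stock; the first replicate is given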
Calb FLC = affects C. albicans growth with fluconazole; 0.57% of 300,000 active; C. albicans CaCi-2 (fluconazole-resistant clinical isolate) + fluconazole, Alamar Blue growth, 48 h; growth inhibition, % (concentration not given with the values);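 active means most replicates above 75%; inconclusive means exactly half above 75%; inactive means most below 75%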;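 further: all wells also contain fluconazole at 8 µg/ml as a sub-toxic cotreatment; 0% = median of DMSO wells and 100% = median of geldanamycin control wells; wells of about 8 µL received 7.5 nL stock; the first replicate is given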
LANA-H2B inh = blocks KSHV LANA binding to histone H2A/H2B; Q9QR71; cell-free LANA-H2A/H2B peptide, fluorescence polarization; inhibition, % (test concentration not listed); 0.6% of 320,000 active; AID 2629; in the data active means inhibition mostly above about 10%, no sharp cut-off; inactive means mostly below about 6.7%;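 further: stock transfer was 7.5 nL into about 10 µL; 0% = median of vehicle wells and 100% = median of positive control wells; one replicate is shown; the record names a cut of 25% in any replicate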
Beta2AR agonist = agonists of human beta-2 adrenergic receptor inducing internalization. P07550. Am2.2-beta2AR cells, FAP receptor internalization, flow cytometry; reference of the scale not given here. response, % (no concentration beside the values). 0.43% of 340,000 active;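 active means response above a set limit, near 3 SD of response in nonfluorescent compounds, cut at about 42% in these data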;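 further: stock transfer was 100 nL into about 11 µL; a reference agonist was the positive control; negative values mostly stem from fluorescent compounds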
Target sequence (P07550 whole entry, looked up): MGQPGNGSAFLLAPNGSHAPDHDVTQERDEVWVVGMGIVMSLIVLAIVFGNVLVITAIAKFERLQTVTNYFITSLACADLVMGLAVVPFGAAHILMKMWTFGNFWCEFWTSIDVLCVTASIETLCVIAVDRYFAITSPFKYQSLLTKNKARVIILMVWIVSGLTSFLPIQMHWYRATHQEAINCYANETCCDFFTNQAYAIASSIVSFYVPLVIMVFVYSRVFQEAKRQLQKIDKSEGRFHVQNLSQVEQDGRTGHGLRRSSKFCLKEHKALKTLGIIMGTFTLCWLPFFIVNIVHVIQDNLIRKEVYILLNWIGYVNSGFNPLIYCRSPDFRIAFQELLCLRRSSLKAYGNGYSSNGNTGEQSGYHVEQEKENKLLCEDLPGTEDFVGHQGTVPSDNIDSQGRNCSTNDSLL
A1 inh = inhibitors of the anti-apoptotic protein A1, read as caspase activation; caspase activation, % (concentration not given with the values); AID 2462; 0.066% of 330,000 active; MEF A1-2A-BIM cells, Caspase-Glo 3/7 luminescence, 3 h; percent of clofoctol response, vehicle zero;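 active means over half of replicate activation scores above 10%, or exactly half above 10 with the replicate mean above 10; inconclusive means replicate mean below 10 yet half the replicates above 10; inactive means over half of replicates below 10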;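 further: wells of about 30 µL received 50 nL stock; many hits fall short of the cut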
T cruzi repl = blocks replication of Trypanosoma cruzi; T. cruzi beta-gal in NIH3T3, luminescence, 90 h; inhibition, % (concentration not given with the values); 1.4% of 300,000 active;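 active means mean inhibition across valid replicates above about 55%, limit read from the data; inconclusive means mean below that limit but half or more replicates reach it; inactive means mean below it, under half of replicates reach it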;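 further: signal also drops with host cell toxicity which is not excluded here; 0% = plate median of DMSO wells and 100% = zero luminescence signal; higher percent means less beta-gal luminescence so fewer parasites; stock transfer was 50 nL into about 50 µL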
Beta apoptosis = blocks beta cell apoptosis. INS-1E cytokine-induced death, ATP luminescence, 48 h; percent of positive-control rescue, neutral wells zero. 0.8% of 300,000 active. protection from apoptosis, % (concentration not given with the values). AID 435005;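 active means all replicates at 75% or more, or half of them and the mean; inconclusive means half reach 75% but not the mean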;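 further: 0% = cytokine-treated negative control wells and 100% = positive control rescue; higher means more ATP so stronger rescue from cytokine killing; wells of about 40 µL received 100 nL stock; the first replicate is given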
* marks the source's active call; other numbers are inactive results; ? = inconclusive; . = no result given.

Results follow in this order: RanGTP-Impb inh, A1 inh, T cruzi repl, LANA-H2B inh, Beta2AR agonist, UCH37 inh, Calb FLC, Beta apoptosis
- CCOc1ccc(N(CC(=O)N2CCN(C(=O)CN(c3ccc(OCC)cc3)S(C)(=O)=O)CC2)S(C)(=O)=O)cc1
 : -0.8, -0.3, -6, -5.7, -10, -0.4, -5, .
- COc1ccc(C(=O)N2CCC(n3c(C)nc4cc(F)ccc43)CC2)cc1OC
 : 0.1, 1.3, 8, -3.7, -2, 2.3, -2, -7
- CCN(CC(=O)Nc1c(F)cccc1F)C(=O)c1ccc(=O)[nH]c1
 : 2.4, -0.8, 3, 3.6, -3, 2.8, -5, -9
- C1CCCC(N2CCNCC2)CC1
 : ?, 0.2, 14, 6.3, 3, -2.1, -12, -3
- CCN(CC)c1nc(-c2ccccc2)ncc1S(=O)(=O)c1ccc(C)cc1
 : 3.9, 0.5, 58*, -6.4, 5, 4.8, 6, 0
- CCCCNC(=O)CSc1nc2ccccc2c(=O)n1CCNC(C)=O
 : 6.9, 1.4, -10, 2.0, -5, -0.4, 0, -7
- Cc1cccc(C(CC(=O)N2CCCCC2)c2ccccc2)c1O (stereo not given)
 : 2.7, 0.1, 0, 1.2, 0, 1.9, 5, .
- O=C(Nc1ccc(F)cc1F)c1cccnc1
 : -3.1, -1.9, -2, 0.3, 2, -0.1, -2, 3
- CCOc1ccccc1CNS(=O)(=O)c1cc(-c2cc(C)no2)ccc1OC
 : 8.4, -0.4, 12, -0.8, -15, 2.1, 36, -1
- C/C(=N/N1CCN(c2ccccn2)CC1)c1ccc([N+](=O)[O-])cc1
 : 0.4, -0.7, 0, 3.9, -4, ., -8, .
- COc1ccc(CCNC(=O)CCCn2c(SCC#N)nc3ccccc3c2=O)cc1OC
 : -1.1, 1.2, 21, 0.1, -8, 2.9, -4, 3
- c1ccc(-c2ncc3c(ccc4ccccc43)n2)cc1
 : 1.3, 0.6, -16, -6.0, -2, -31, -5, -7
- CCOC(=O)c1nc(Nc2ccc(N3CCC(C)CC3)cc2)c2ccccc2n1
 : 4.3, -0.1, 49, 1.3, 1, 6.0, -9, 19
- COc1ccc(OCC(O)CN(CCO)CC(O)Cn2ccc3ccccc32)cc1 (stereo not given)
 : 0.8, 0.4, -12, -1.3, 4, 1.2, -2, -3
- CCOC(=O)CNC(=O)N(CCOC)CC1CCCN(C2Cc3ccccc3C2)C1 (stereo not given)
 : -1.4, 0.8, 14, -5.7, -2, 4.0, -9, .
- CCN(C(=O)CSc1nc2nc(C)cc(C)n2n1)C1CCS(=O)(=O)C1 (stereo not given)
 : 1.9, -2.1, -1, ., -4, -2.0, -18, -4
- O=C(Cn1nnc2ccccc2c1=O)NCCc1ccc(F)cc1
 : 0.0, 0.5, -8, -4.5, ., 2.1, 19, 0
- COc1ccc(OC)c(CN(CCN2CCOCC2)S(=O)(=O)c2ccc(NC(C)=O)cc2)c1
 : 3.6, 0.4, 9, -3.8, -19, 1.3, 8, -4
- O=C(COc1cccc(F)c1)NNC(=O)c1cccc(-n2cccc2)c1
 : 8.2, -0.4, 4, -0.7, -3, 2.1, -7, -9
- CCOC(=O)c1sc(=S)n(-c2ccccc2Cl)c1C
 : 3.3, -0.7, ., 3.7, 3, 4.6, 25, -3
- Cc1ccccc1C(=O)NC(=S)Nc1sc2c(c1C#N)CCCC2
 : 6.6, 0.9, -1, -0.2, -1, 5.2, -9, 3
- CCN(C(=O)CSc1nnc(-c2ccc(F)cc2)n1C)C1CCS(=O)(=O)C1 (stereo not given)
 : ., 0.1, ., 0.0, -12, -2.5, ., -15
- COCCNS(=O)(=O)c1ccc(-c2ccc(C)cc2)cc1
 : 2.3, -0.4, -6, 0.0, 1, 3.1, -29, 1
- CC1CC(C)CN(S(=O)(=O)c2ccc(C(=O)Nc3nnc(C4CC4)o3)cc2)C1 (stereo not given)
 : 0.0, 1.1, 37, -8.4, 8, 2.5, 3, 27
- Cc1nn(C)cc1NC(=O)c1ccc(Br)o1
 : 4.9, 0.6, 2, -2.0, -9, 1.0, 4, 6
- Cc1cc(=O)c2c(C)nn(-c3ccccc3)c2[nH]1
 : -0.9, 0.1, -21, 2.3, 2, 1.8, 5, 4
- Cc1ccc(C(O)c2nc3ccccc3n2C(C)C)cc1 (stereo not given)
 : -0.4, 0.5, 0, -3.1, -3, 2.5, 2, -3
- OCCCn1c(CCNc2nc(-c3ccc(F)cc3)cs2)nc2cc(C(F)(F)F)ccc21
 : 3.0, 0.5, 21, -1.0, 7, 4.2, 21, 4

Part of the list above in order of number of heavy atoms, lowest first.
Results follow in this order: RanGTP-Impb inh, A1 inh, T cruzi repl, LANA-H2B inh, Beta2AR agonist, UCH37 inh, Calb FLC, Beta apoptosis
- Cc1cc(=O)c2c(C)nn(-c3ccccc3)c2[nH]1
 : -0.9, 0.1, -21, 2.3, 2, 1.8, 5, 4
- Cc1cccc(C(CC(=O)N2CCCCC2)c2ccccc2)c1O (stereo not given)
 : 2.7, 0.1, 0, 1.2, 0, 1.9, 5, .
- COc1ccc(CCNC(=O)CCCn2c(SCC#N)nc3ccccc3c2=O)cc1OC
 : -1.1, 1.2, 21, 0.1, -8, 2.9, -4, 3

Sorted by value in Beta2AR agonist (highest first): some entries from above.
SMILES	Beta2AR agonist
c1ccc(-c2ncc3c(ccc4ccccc43)n2)cc1	-2
O=C(COc1cccc(F)c1)NNC(=O)c1cccc(-n2cccc2)c1	-3
CCOc1ccc(N(CC(=O)N2CCN(C(=O)CN(c3ccc(OCC)cc3)S(C)(=O)=O)CC2)S(C)(=O)=O)cc1	-10

One compound at a time (already shown). Order of values: RanGTP-Impb inh	A1 inh	T cruzi repl	LANA-H2B inh	Beta2AR agonist	UCH37 inh	Calb FLC	Beta apoptosis
Results for `C/C(=N/N1CCN(c2ccccn2)CC1)c1ccc([N+](=O)[O-])cc1` : 0.4	-0.7	0	3.9	-4	.	-8	.
Results for `COc1ccc(OC)c(CN(CCN2CCOCC2)S(=O)(=O)c2ccc(NC(C)=O)cc2)c1` : 3.6	0.4	9	-3.8	-19	1.3	8	-4

Entries above with a cyano group, in the order listed:
Results follow in this order: RanGTP-Impb inh, A1 inh, T cruzi repl, LANA-H2B inh, Beta2AR agonist, UCH37 inh, Calb FLC, Beta apoptosis
- COc1ccc(CCNC(=O)CCCn2c(SCC#N)nc3ccccc3c2=O)cc1OC
 : -1.1, 1.2, 21, 0.1, -8, 2.9, -4, 3
- Cc1ccccc1C(=O)NC(=S)Nc1sc2c(c1C#N)CCCC2
 : 6.6, 0.9, -1, -0.2, -1, 5.2, -9, 3
